LASV entry inh – Lassa virus entry inhibition; Lassa virus pseudotype entry inhibition, cell reporter; control for the full effect not named in the record; Potency, µM (doses to about 37.9 µM), inactives show top-dose activity change, negative = inhibition, hits mostly inhibitors; AID 540256; 300,000 compounds, 1.2% hits; active means well fitted inhibition curve with a large enough effect; inconclusive means small, poorly fitted or top-dose-only effect, or effect the other way; inactive means flat fitted curve, though single readings scatter; tested in HEK293 cells; further: on the % scale 0 is the no-effect control and ±100 the full control effect; nearly all actives have a fitted effect of over 50% in size; luciferase read-out
Cruzain noTriton – inhibitors of Trypanosoma cruzi cruzain without detergent; 200,000 compounds, 2.3% hits; Potency, µM, inactives show max response, negative = inhibition, actives largely listed as inhibitors; purified cruzain, Z-FR-AMC fluorescence, no detergent;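 further: plate controls were enzyme without inhibitor for no effect and buffer without enzyme for full effect; nearly all actives have a fitted effect of over 40% in size; top concentration of the series not given in the record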
Target sequence (P25779 123-467 limits assumed): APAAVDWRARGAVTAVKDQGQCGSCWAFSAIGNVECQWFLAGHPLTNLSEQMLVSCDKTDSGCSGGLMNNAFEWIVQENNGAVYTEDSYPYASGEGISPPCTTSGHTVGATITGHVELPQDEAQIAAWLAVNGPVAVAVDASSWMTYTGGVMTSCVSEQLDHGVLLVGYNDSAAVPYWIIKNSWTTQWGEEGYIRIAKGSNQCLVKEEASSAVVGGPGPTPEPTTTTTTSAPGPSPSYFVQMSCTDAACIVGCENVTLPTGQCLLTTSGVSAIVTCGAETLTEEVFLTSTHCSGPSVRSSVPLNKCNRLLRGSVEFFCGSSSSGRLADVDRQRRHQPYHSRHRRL
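Detergent-free condition (0.00005% Triton X-100) in acetate buffer pH 5.5 with DTT. 1.5 nM enzyme and compound were pre-mixed 15 min, then 2 uM Z-FR-AMC substrate added; reaction progress from fluorescence change between first and third reads (60 s).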
Cruzain Triton – cruzain (T. cruzi) inhibition with detergent. purified cruzain, Z-FR-AMC fluorescence, 0.01% Triton. Potency, µM, for the others: max response, negative = inhibition, hits mostly inhibitors. 200,000 compounds, 0.43% hits. AID 1478;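 further: plate controls were neutral wells for no effect and buffer without enzyme for full effect; nearly all actives have a fitted effect of over 40% in size; top concentration of the series not given in the record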
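Cruzain (1.5 nM) preincubated 15 min at RT with compound in 100 mM sodium acetate pH 5.5, 5 mM DTT, 0.01% Triton X-100. Reaction started with 2 uM Z-FR-AMC; AMC fluorescence (ex 360/em 450 nm) change over 60 s gave rate.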
MARV entry inh – blocks Marburg virus binding to or entry into cells | Marburg virus pseudotyped entry inhibition, cell reporter; control for the full effect not named in the record; about a third of the inactives were read at about 46 µM | Potency, µM (titrated, usually from 37.8 µM), for inactives: at the highest dose activity change, negative = inhibition, usual class: inhibitors | 300,000 compounds, 1.8% hits | AID 540276; active = well fitted inhibition curve with a large enough effect; inconclusive = small, poorly fitted or top-dose-only effect, or effect the other way; inactive = flat fitted curve, though single readings scatter; tested in HEK293 cells; about a fifth of its hits are not listed in these tables; further: on the % scale 0 is the no-effect control and ±100 the full control effect; luciferase read-out
NS1 inh – influenza NS1 inhibition; Potency, µM (titrated, usually from 46.1 µM), inactives show at the top dose activity, positive = more growth; AID 2326; S. cerevisiae slowed by influenza A NS1, growth recovery by OD600; 270,000 compounds, 0.4% hits; active means well fitted rising curve with a large enough effect; inconclusive means small, poorly fitted or top-dose-only effect; inactive means no such curve, though single readings can be large or run the other way; further: nearly all actives have a fitted effect of over 50% in size
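A cell-based growth assay was used: compounds that relieve NS1-induced slow growth of budding yeast raise OD600. Assay medium was yeast nitrogen base with ammonium sulphate and -URA supplement, pH 6.0, with 2% galactose.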
SARS PLP yeast – SARS-CoV PLP inhibition in yeast. S. cerevisiae expressing SARS-CoV PLpro, growth rescue; control for the full effect not named in the record. 330,000 compounds, 0.19% hits. Potency, µM (titrated, usually from 32.9 µM), for inactives: at the top dose activity, positive = growth rescue. AID 485353; active means well fitted rising curve with a large enough effect; inconclusive means small, poorly fitted or top-dose-only effect; inactive means no such curve, though single readings can be large or run the other way; further: 0% is about no effect; nearly all actives have a fitted effect of over 55% in size; growth read by luminescence after 48 h
StopGo reporter – FMDV 2A StopGo reporter, luciferase signal. human cells with a luciferase reporter of 2A StopGo recoding; control for the full effect not named in the record. Potency, µM (highest dose often 57.9 µM), for inactives: top-dose signal change, negative = less light. 410,000 compounds, 1.2% hits; active = well fitted falling curve with a large enough effect; inconclusive = small, poorly fitted or top-dose-only effect; inactive = no such curve, though single readings can be large or run the other way; tested in HEK293T cells; further: on the % scale 0 is the no-effect control and ±100 the full control effect; nearly all actives have a fitted effect of over 45% in size; luciferase light after 4 h
RE007 growth inh – less growth of the S. pombe RE007 Vpr strain. S. pombe RE007 Vpr strain, BacTiter-Glo ATP luminescence, 24 h; control for the full effect not named in the record. Potency, µM (highest dose often 92.2 µM), for inactives: top-dose activity change, negative = less growth. 360,000 compounds, 0.21% hits; active = well fitted falling curve with a large enough effect; inconclusive = small, poorly fitted or top-dose-only effect; inactive = no such curve, though single readings can be large or run the other way;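 further: on the % scale 0 is the no-effect control and ±100 the full control effect; nearly all actives have a fitted effect of over 50% in size; the assay follows cell death caused by Vpr and the record does not say whether a fall means rescue or toxicity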
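Fission yeast strain RE007, carrying one chromosomally integrated HIV-1 vpr copy, was seeded at OD 0.01 in PMG+AL medium with 23 nL pinned compound. After 24 h at 30 °C and 99% humidity, viability was read by BacTiter-Glo luminescence.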
An asterisk follows results filed as active; ? = inconclusive; nt = no result given; & = joins results of further samples; [ ] = another dose, or the depositor's remark. Unless noted, the call rests on the fitted dose curve; in most records, active means well fitted curve in the direction sought with a large enough effect; inconclusive means small, poorly fitted or top-dose-only effect, or another doubt; inactive means no such curve, though single readings can be large; an effect the other way counts as inactive or inconclusive. Potency means the concentration at half of the fitted maximal effect.

SMILES	LASV entry inh	Cruzain noTriton	Cruzain Triton	MARV entry inh	NS1 inh	SARS PLP yeast	StopGo reporter	RE007 growth inh
CC(=O)N=C1SC2CS(=O)(=O)CC2N1c1cccc(Cl)c1Cl (stereo not drawn)	-7%	-2%	2.9%	10%	11%	-2%	-2%	16%
Cc1ccc(-n2cnnn2)c2cccnc12	2%	1%	-1.5%	5%	-6%	-1%	12%	8%
O=C(N/N=C/c1ccc(F)cc1)c1cc(-c2ccccn2)nc2ccccc12	-4%	nt	nt	-13%	nt	2%	-1%	-12%
CC(=O)OCc1nc2sc(C)c(C)c2c(=O)[nH]1	4%	-9%	-1.2%	5%[46.1 µM]	1%	-20%	-11%	0%
CCN(c1ccccc1)S(=O)(=O)c1ccc(N)c(OC)c1	?	0%	-2.5%	3.2µM*	-11%	7%	1%	-16%
COCCn1nnnc1CN1CCSCC1	nt	nt	nt	nt	1%	0%	-5%	45%
Cc1cccc(-n2c(=O)cc(N3CCN(c4ccc(F)cc4)CC3)[nH]c2=O)c1	nt	?	-0.6%	nt	-66%	23%	0%	14%
COc1ccc(Cl)cc1NC(=O)CN(C)CC(=O)Nc1ccccc1C(F)(F)F	-10%	nt	nt	-27%[46.1 µM]	nt	-7%	?	11%
COCCNC(=O)c1cccc(Nc2nc3ccccc3n3nnnc23)c1	-6%[46.1 µM]	-6%	-3.0%	nt	nt	nt	-12%	nt
COc1ccc2c(c1)CCc1c(C(=O)NCc3ccc(F)cc3)noc1-2	nt	-2%	-4.2%	nt	?	0%	-21%	-3%
c1ccc(-c2nnc3ccc(N4CCCC4)nn23)cc1	nt	?	-2.0%	nt	2%	-9%	-16%	3%
N#CC1=C(N)SC(C(=O)c2ccccc2)C1c1cccs1 (stereo not drawn)	-30%	-12%	-15%	-8%	-20%	-3%	?	-6%
CC(C)(C)c1ccc(C(=O)NNC(=O)c2cccc(-n3cnnn3)c2)cc1	nt	nt	nt	nt	-1%	0%	-18%	13%
CN1CCN(C(=O)c2ccccc2Nc2ccc(SC(F)F)cc2)CC1	nt	nt	nt	nt	-2%	2%	12%	3%
CCOc1ccc(NS(=O)(=O)c2ccc(-c3coc(C)n3)cc2)cc1	nt	nt	nt	nt	-11%	9%	-1%	3%
Cc1ccccc1C(=O)Nc1ccc(S(=O)(=O)Nc2onc(C)c2C)cc1	14%	nt	nt	-6%[46.1 µM]	-6%	0%	0%	-9%
Cc1sc2ncn(CC(=O)NCCCC(=O)N3CCCCC3)c(=O)c2c1C	11%[46.1 µM]	nt	nt	-18%[46.1 µM]	16%	0%	-8%	2%
Cc1nc(S/C(=C\c2ccc(OCc3ccccc3Cl)cc2)C(=O)O)n[nH]1	12%	-13%	1.0%	10%	26%	1%	-7%	4%
CCn1c(-c2cccc(S(=O)(=O)N3CCCC3)c2)n[nH]c1=S	nt	nt	nt	nt	12%	1%	-17%	10%
CCCOc1ccc(C(=O)NCc2ccco2)cc1	?	2%	4.7%	10%	-63%	7%	42%[activator]	-10%
CCOC(=O)C1(CCc2ccccc2)CCN(C(=O)CCn2cncn2)CC1	-6%[46.1 µM]	nt	nt	?	-2%	-2%	51%[activator]	6%
CCN1CCN(c2ccc(NC(=O)c3ccc4c(c3)OCO4)cc2)CC1	19%	-4%	2.9%	?	-6%	8%	34%[activator]	9%
CCCC(=O)Nc1ccc(C(=O)O)cc1NC(=O)CCC	-8%	2%	5.5%	13%[46.1 µM]	-27%	-1%	0%	-2%
O=C(CSc1nc2ccccc2c(=O)n1CC1CCCCC1)N1CCOCC1	2%	?	-6.7%	-2%	-57%	0%	?	8%
O=C(COc1ccccc1)Nc1nnc(SCc2cc(=O)c3ccccc3[nH]2)s1	5%[46.1 µM]	-5%	1.4%	nt	nt	nt	?	nt
O=C(Nc1nccs1)C1CCN(S(=O)(=O)c2ccc(Cl)c(C(F)(F)F)c2)CC1	-15%	-1%	0.7%	-14%	3%	4%	-27%	9%
CCNc1nc(NCC)n2c(SCC(=O)Nc3ccccc3OC(F)F)nnc2n1	4%	nt	nt	4%	nt	2%	0%	23%
COc1cc(NC(=O)CSc2nccn2C)cc(OC)c1OC	-1%[46.1 µM]	20%	2.3%	-11%[46.1 µM]	nt	nt	-17%	nt
CCN(Cc1ccccc1)S(=O)(=O)c1ccc(C(=O)N(CCCN(C)C)c2nc3cc(OC)ccc3s2)cc1	?	nt	nt	?	nt	0%	0%	-9%
CN(c1ccccc1C(=O)N1CCN(c2cccc(Cl)c2)CC1)S(C)(=O)=O	-15%	?	0.5%	4%	-7%	3%	0%	14%
Cc1cccc(NC(=O)c2cc3ccccc3nc2C)c1	-2%[46.1 µM]	nt	nt	-9%[46.1 µM]	nt	-1%	0%	7%
COCCOC(=O)C1=C(C)NC(=O)N(C(C)=O)C1c1ccc(Cl)cc1 (stereo not drawn)	-7%	3%	3.3%	-2%	-10%	-5%	nt	0%
Cn1c(SCC(=O)Nc2ccccc2[N+](=O)[O-])nnc1C(F)(F)F	-1%	nt	nt	9%	nt	2%	11%	4%
CC(C(=O)Nc1ccccc1C(F)(F)F)n1nc(-c2ccccc2)c2c(c1=O)CCCC2 (stereo not drawn)	17%[46.1 µM]	?	-7.0%	?	nt	nt	-2%	nt
CCCc1cc(N2CCN(c3ccccc3)CC2)n2cnnc2n1	-9%[46.1 µM]	2%	-1.8%	4%[46.1 µM]	nt	nt	?	nt
COc1cc2[nH]c(=O)n(-c3ccc(C)cc3)c(=O)c2cc1OC	14%[46.1 µM]	-4%&-2%	-0.5%&-1.5%	4%[46.1 µM]	-2%	?	0%&0%	-6%
COC(=O)c1ccc(C(=O)OC)c(NC(=O)c2c(-c3ccccc3)noc2C)c1	-6%[46.1 µM]	3%	5.3%	-3%[46.1 µM]	nt	nt	7%	nt
Cc1ccccc1-n1c(SC(C)C(=O)N2CCN(C)CC2)nc2ccccc2c1=O (stereo not drawn)	nt	-2%	2.2%	-1%	5%	3%	0%	-21%
CN(C)c1nc(OCCNC(=O)Nc2ccccc2)nc(N2CCCCC2)n1	-17%	nt	nt	-17%	-7%	-1%	-11%	-17%
CCC(C)[C@H](NC(=O)OC(C)(C)C)c1nnc(SCc2c(C)[nH]c(=O)[nH]c2=O)o1 (stereo partly drawn)	0%	4%	3.1%	-1%	10%	-1%	-10%	14%
CC(NC(=O)C1CCCN1S(=O)(=O)c1ccc2c(c1)n(C)c(=O)c(=O)n2C)c1ccccc1 (stereo not drawn)	?	nt	nt	2%	0%	-1%	-6%	3%
CCOc1ccc(NC2=NCC(=O)N2Cc2cccs2)cc1	?	3%	-3.6%	-8%	19%	-1%	-6%	1%
O=C(CCCCCn1c(=S)[nH]c2cc3c(cc2c1=O)OCO3)N1CCN(c2ccccc2)CC1	nt	nt	nt	nt	-6%	-6%	-14%	8%
O=C(O)CSc1c2ccccc2cc2ccccc12	nt	nt	nt	nt	-114%	-3%	9%	2%
O=c1cc(C(F)(F)F)[nH]c2ccc(OC(F)(F)F)cc12	?	nt	nt	?	-44%	-6%	?	1%
CC(=O)c1c(C(C)=O)c(C)n(C(c2ccccc2)c2ccccc2)c1C	nt	nt	nt	nt	-1%	0%	-29%	-5%
Cc1ccccc1NC(=O)OCc1cccnc1Sc1ccc(Cl)cc1	?	-3%	-4.0%	12%	-2%	0%	?	-6%
O=C(O)c1ccc(NCc2ccc(Br)cc2)cc1	nt	nt	nt	nt	-33%	1%	13%	-2%
Clc1ccc(SCc2cc(-c3ccccc3)on2)cc1	7%	13%	-2.1%	?	-14%	?	6%	-2%
Cc1cccc(C(=O)NCCCN2CCCC2=O)c1	15%	-2%	6.1%	?	12%	-6%	13%	4%
O=C(NCc1ccccc1)c1ccc2c(c1)N(Cc1ccc(F)cc1)CCS2	?	-5%	-8.1%	?	nt	nt	1%	nt
COc1ccc(C2=NS(=O)(=O)N(C)C(C(=O)NC(C)c3ccccc3)=C2)cc1OC (stereo not drawn)	2%[46.1 µM]	?	-4.0%	9%[46.1 µM]	8%	-4%	-24%&-3%	-8%
CSc1nnc(-c2cc[n+](C)cc2)n1CCO	-3%	-4%	-3.9%	4%	14%	4%	-24%	0%
COc1c2c(nc3occc13)C(CC=C(C)C)(OC)C(=O)C=C2 (stereo not drawn)	-26%	0%	-0.9%	6%&6%	0%	0%	-4%&0%	4%
COc1cccc(CC(=O)NCc2ccc3c(c2)CCN3C(C)=O)c1	?	0%	0.3%	nt	nt	nt	16%	nt
O=C(c1cccc(Cl)c1)N1CCN(c2ncccn2)CC1	nt	nt	nt	nt	4%	0%	-5%	4%
CC(=O)c1ccc(NC(=S)N2CCCC2)cc1	11%[46.1 µM]	nt	nt	23%[46.1 µM]	4%	2%	26%	5%
O=C(CCCn1nnnc1CN1CCOCC1)N1CCC(c2ccccc2Cl)C1 (stereo not drawn)	nt	nt	nt	nt	-2%	2%	-11%	-4%
CC(C)n1c(C(O)c2ccc3c(c2)OCO3)nc2ccccc21 (stereo not drawn)	-20%	10%	4.1%	7%	-12%	1%	-11%	7%
COc1ccccc1Cn1ccn(Cc2ccc(C)cc2)c(=O)c1=O	-5%[46.1 µM]	?	-6.2%	nt	nt	nt	7%	nt
CC(C)C1N(C(=O)CN2CCCCC2)CCN1S(=O)(=O)c1ccccc1 (stereo not drawn)	-11%[46.1 µM]	nt	nt	5%[46.1 µM]	nt	1%	1%	7%
CCOc1ccc(C(C)NC(=O)C2CCCC2)cc1 (stereo not drawn)	-23%[46.1 µM]	nt	nt	?	nt	0%	-19%	18%
CCCCC(=O)Nc1cccc(OCc2cc(=O)n3ccccc3n2)c1	19%[46.1 µM]	11%	4.9%	nt	nt	nt	47%[activator]	nt

Source: PubChem BioAssay (National Center for Advancing Translational Sciences (NCATS))
